# Sfp PPTase inh: Sfp phosphopantetheinyl transferase inhibition. Q9F4F7. Biochemical Sfp PPTase activity, qHTS. Potency, µM, inactives show max response, negative = inhibition, most hits filed as inhibitors. 3.5% of 310,000 active. AID 1490; active = well fitted inhibition curve with a large enough effect; inconclusive = small, poorly fitted or top-dose-only effect, or another doubt; inactive = no such curve, though single readings can be large or run the other way;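 also: the enzyme is Sfp with the accession as filed and its product quenches rhodamine fluorescence; potency is read from the fitted curve at half-maximal effect; 0% = enzyme reaction without inhibitor and -100% = no enzyme wells; top concentration of the series not given in the record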
#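 Compounds were incubated with enzyme (final 15 nM) for 15 min at room temperature before substrate addition started the reaction. Fluorescence at 525 nm excitation, 598 nm emission was recorded immediately and after 30 minutes.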
# Menin MLL FP FL: menin-MLL binding inhibition, fluorescein peptide | 290,000 tested, under 10 active | AID 1766 | Fluorescence polarization, fluorescein-MLL peptide displacement from menin | FP activity change, % at 61.4 µM; inconclusive = falling polarisation curve, or a change in total fluorescence; inactive = total fluorescence flat and polarisation flat or rising; no compound was filed as active; the % refers to the polarisation; negative = inhibition;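 also: % of control where 0% means no effect; inhibitors lower the polarisation; unlabelled MLL peptide was the positive control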
# TRPML1 inh: blocks the human TRPML1 channel. Q9GZU1. TRPML1-inducible cells, Ca2+ dye fluorescence, FDSS; stronger effect = lower value; inhibition of EC80 agonist-evoked calcium signal. activity change, negative = inhibition, % (concentration not given with the values). 0.02% of 390,000 active. AID 624415; in the data active means activity change below about -50%; inconclusive means about -30% to -50%; inactive means above about -30%;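 also: stimulus is agonist 54-4 at its EC80 concentration; % is scaled to controls: 0 for no effect and ±100 for the full control effect; compound concentration not given in the record; the text of the record puts the active cut at -80%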
#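 Tet-induced TRPML1-DL cells loaded with Ca8 no-wash calcium dye were read kinetically on FDSS. Compound addition was followed by EC80 agonist 54-4 (4 uM final); inhibition was read over 110 s.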
# ClpP mod: qHTS Assay for Activators of ClpP; ATP-dependent Clp protease proteolytic subunit (Bacillus subtilis (strain 168)), P80244; purified B. subtilis ClpP, FRET peptide cleavage, 20 min; Potency, µM (highest dose often 57.5 µM), for inactives: at the top dose activity change, negative = active; 1.9% of 340,000 active; active = well fitted falling curve with a large enough effect; inconclusive = small, poorly fitted or top-dose-only effect; inactive = no such curve, though single readings can be large or run the other way; also: potency is read from the fitted curve at half-maximal effect; the source files actives as falling curves though it sought activators and does not explain the sign; nearly all actives have a fitted effect of over 65% in size; many hits overshoot -100%
# Target sequence (P80244 whole entry, looked up): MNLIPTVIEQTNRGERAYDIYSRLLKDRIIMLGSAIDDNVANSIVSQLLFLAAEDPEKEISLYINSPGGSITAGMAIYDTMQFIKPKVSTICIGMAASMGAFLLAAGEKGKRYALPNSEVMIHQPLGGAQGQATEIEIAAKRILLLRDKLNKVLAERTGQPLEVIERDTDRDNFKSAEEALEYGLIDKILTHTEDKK
#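 Purified B. subtilis ClpP, 10 microg/mL final in Tris/HCl pH8 with KCl, BSA, glycerol and Tween-20, cleaved an Abz/nitrotyrosine-quenched decapeptide. Fluorescence (ex 320, em 430) was read at 0 and 20 min at room temperature. Delta was normalized to 5.8 microM ADEP and DMSO/no-enzyme controls.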
# PINK1 expr mod: changes PINK1 expression. PINK1 immunofluorescence, high-content cytometry, 24 h. Potency, µM (doses to about 76.6 µM), without a hit: at the top dose activation (PINK1 increase), actives largely listed as activators. 0.2% of 410,000 active. AID 624263; active = well fitted activation curve with a large enough effect; inconclusive = small, poorly fitted or top-dose-only effect; inactive = flat fitted curve, though single readings scatter; cell line not stated here;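 also: potency is read from the fitted curve at half-maximal effect; % of control where 0% means no effect; nearly all actives have a fitted effect of over 65% in size; a mitochondrial uncoupler was the plate control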
#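 PINK1 protein level read as immunofluorescence by microplate cytometer in a fixed, stained stable cell line after 24 h exposure to five compound concentrations, with CCCP as control.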
# TRPV1 potentiator: enhances activation of the human vanilloid receptor TRPV1 | AID 540277 | TRPV1-expressing cells, Fluo-8 calcium influx, capsaicin EC20 potentiation; host cell line not named in the record; control for the full effect not named in the record | Q8NER1 | 0.02% of 320,000 active | potentiation, % at 8.33 µM; active means potentiation above 80%; inconclusive means 30% to 80%; inactive means below 30%; also: 0% is about no effect
# Target sequence (Q8NER1 whole entry, looked up): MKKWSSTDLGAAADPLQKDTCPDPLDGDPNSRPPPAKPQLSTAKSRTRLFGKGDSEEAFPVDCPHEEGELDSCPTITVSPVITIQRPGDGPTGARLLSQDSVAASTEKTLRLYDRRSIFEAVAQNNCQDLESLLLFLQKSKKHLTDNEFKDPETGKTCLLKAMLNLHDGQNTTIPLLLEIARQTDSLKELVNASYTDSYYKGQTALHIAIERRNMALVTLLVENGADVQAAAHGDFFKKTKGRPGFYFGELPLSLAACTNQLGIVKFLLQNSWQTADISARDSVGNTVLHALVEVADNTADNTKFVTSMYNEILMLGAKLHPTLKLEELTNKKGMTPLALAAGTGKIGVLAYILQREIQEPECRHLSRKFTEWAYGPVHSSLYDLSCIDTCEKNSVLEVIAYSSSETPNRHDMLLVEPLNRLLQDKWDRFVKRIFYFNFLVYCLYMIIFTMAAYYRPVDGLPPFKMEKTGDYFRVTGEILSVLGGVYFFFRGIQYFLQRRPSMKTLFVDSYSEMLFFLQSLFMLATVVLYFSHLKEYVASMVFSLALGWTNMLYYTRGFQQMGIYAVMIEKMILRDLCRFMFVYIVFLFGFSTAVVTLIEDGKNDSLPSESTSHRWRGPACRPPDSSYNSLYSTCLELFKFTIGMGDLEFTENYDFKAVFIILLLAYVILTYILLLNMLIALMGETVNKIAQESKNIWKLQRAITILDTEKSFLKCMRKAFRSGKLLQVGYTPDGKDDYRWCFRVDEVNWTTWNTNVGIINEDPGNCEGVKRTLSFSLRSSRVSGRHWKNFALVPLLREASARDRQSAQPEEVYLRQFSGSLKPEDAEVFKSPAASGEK
#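 TRPV1-expressing cells were cultured overnight at 35.5C and loaded with Fluo-8 calcium dye for 40 to 90 min at room temperature. After a 10 s baseline, compound was added and calcium influx was read kinetically for 3 min (ex 480/em 520 nm).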
# TRPML1 agonist: human mucolipin-1 channel agonism; Q9GZU1; TRPML1-expressing cells, Ca2+ dye fluorescence, FDSS; host cell line not named in the record; reference of the full effect not given here; activation, % (concentration not given with the values); 0.12% of 410,000 active; in the data active = activation above about 50%; inconclusive = about 30% to 50%; inactive = below about 30%; also: 0% is about no effect; the text of the record puts the active cut at 80%
#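 Tetracycline-induced TRPML1-DL cells are seeded and incubated overnight before loading with a no-wash Ca2+ dye and quencher. Agonist activity is taken from the 110 s fluorescence read following compound pin-transfer on an FDSS, before EC80 54-4 challenge.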
# An asterisk follows results filed as active; ? = inconclusive; . = no result given; [ ] = another dose, or the depositor's remark. Outcome played no part in choosing rows (roughly 4.4% active in at least one column).
SMILES,Sfp PPTase inh,Menin MLL FP FL,TRPML1 inh,ClpP mod,PINK1 expr mod,TRPV1 potentiator,TRPML1 agonist
COCCn1nnnc1C(c1ccccc1OC)N1CCc2ccccc2C1 (configuration not stated),.,.,7,-1.2%,-1.9%[38.3 µM],.,-0.2
O=C(CCCn1c(=O)c2cccn2c2cccnc21)NCc1ccccc1Br,.,.,-4,?,0.3%,.,-1.0
CN1C2CCC1CC(NC(=O)c1ccc([N+](=O)[O-])cc1)C2 (configuration not stated),9%,3.6,4,.,1.0%,11,0.7
COc1ccc(CNC(=O)COc2ccc(F)cc2)cc1,25%,-2.0,12,-0.3%,-1.2%,-5,-0.6
COc1cc(-c2c(C#N)c(N)nc3c2CCCC3)ccc1O,5%,3.6,2,-5.8%,4.9%,6,0.8
Cc1cc(O)c(/C=N/Nc2ccccc2Cl)c(=O)o1,-11%,5.2,13,-1.2%,0.3%,12,0.1
CC(=O)c1ccc(NC(=S)NNC(=O)c2ccccc2[N+](=O)[O-])cc1,-21%,2.4,-16,.,1.4%,-4,0.3
O=C(CN1C(=O)c2ccccc2S1(=O)=O)Nc1ncc([N+](=O)[O-])s1,.,.,50,-2.8%,?,7,0.8
Cc1ccc(S(=O)(=O)c2cc3ccccc3nc2N)cc1,4%,0.2,7,.,0.2%,-2,-0.4
COc1ccc(C(=O)NC(=S)Nc2ccc(CN3CCOCC3)cc2)cc1Br,1%,-2.4,6,-1.0%,-0.9%,4,0.5
O=C(Cn1cc(C(F)(F)F)cc(Cl)c1=O)Nc1ccc(N2CCOCC2)cc1,2%,4.1,-3,.,-0.2%,-1,-0.9
CN(Cc1c(C(=O)N/N=C/c2cc(F)ccc2F)nnn1-c1nonc1N)C1CCCCC1,10%,-3.3,16,-1.8%,0.4%,-47,0.3
C/C=C/c1cccc(-c2nc(C(=O)N3CCOCC3)cc3c2[C@H](CCO)N(C(=O)NC(C)C)C3)c1,.,.,.,-2.8%,-0.1%,.,-0.1
N#C/C(=C(/O)CCl)c1nc(-c2ccccc2)cs1,-15%,8.6,-21,.,-0.8%,.,1.2
CC(C)CNS(=O)(=O)c1cc(C(=O)OC2CCOC2=O)c(Cl)cc1Cl (configuration not stated),6%,2.7,1,.,1.4%,-1,0.3

# Reformatted: results already given
CC(=O)c1ccc(NC(=S)NNC(=O)c2ccccc2[N+](=O)[O-])cc1
  Sfp PPTase inh = -21%
  Menin MLL FP FL = 2.4
  TRPML1 inh = -16
  ClpP mod = .
  PINK1 expr mod = 1.4%
  TRPV1 potentiator = -4
  TRPML1 agonist = 0.3

CC(C)CNS(=O)(=O)c1cc(C(=O)OC2CCOC2=O)c(Cl)cc1Cl (configuration not stated)
  Sfp PPTase inh = 6%
  Menin MLL FP FL = 2.7
  TRPML1 inh = 1
  ClpP mod = .
  PINK1 expr mod = 1.4%
  TRPV1 potentiator = -1
  TRPML1 agonist = 0.3

COc1ccc(CNC(=O)COc2ccc(F)cc2)cc1
  Sfp PPTase inh = 25%
  Menin MLL FP FL = -2.0
  TRPML1 inh = 12
  ClpP mod = -0.3%
  PINK1 expr mod = -1.2%
  TRPV1 potentiator = -5
  TRPML1 agonist = -0.6

CN(Cc1c(C(=O)N/N=C/c2cc(F)ccc2F)nnn1-c1nonc1N)C1CCCCC1
  Sfp PPTase inh = 10%
  Menin MLL FP FL = -3.3
  TRPML1 inh = 16
  ClpP mod = -1.8%
  PINK1 expr mod = 0.4%
  TRPV1 potentiator = -47
  TRPML1 agonist = 0.3

# (list continues)
SMILES,Sfp PPTase inh,Menin MLL FP FL,TRPML1 inh,ClpP mod,PINK1 expr mod,TRPV1 potentiator,TRPML1 agonist
O=C(N/N=C/C(Cl)=C/c1ccccc1)c1ccccc1F,-6%,9.7,-14,.,3.3%,2,-0.5
Cc1noc(C)c1COC(=O)c1cc(=O)[nH]c2ccccc12,0%,3.0,0,-16%,1.3%,-19,0.0
Cc1ccc(S(=O)(=O)N2CCCCC2)cc1NC(=O)COC(=O)C1(C)CC1(Cl)Cl (configuration not stated),.,.,8,-0.7%,1.9%,1,2.7
COCCCNc1nc(NCc2ccc(C)cc2)c2cnn(C)c2n1,.,.,-7,-16%,3.7%,.,2.1
CN(CCc1cn[nH]c1)C(=O)CC1C(=O)NCCN1Cc1cccc(Oc2ccccc2)c1 (configuration not stated),-4%,-2.4,1,.,-1.0%,7,0.5
CN1CCc2c(sc3ncn4nc(-c5ccccc5O)nc4c23)C1,-3%,3.4,.,.,.,-4,.
C=CCn1c(O)c(CN2CCCCC2)c(C)c(C#N)c1=O,-8%,?,-1,-10%,1.8%,8,0.1
CCn1cc(Cl)c(C(=O)N2N=C(c3ccc4ccccc4c3)CC2c2ccccc2O)n1 (configuration not stated),-9%,-0.3,1,-5.8%,1.3%,9,0.0
CCc1ccc(OCC(=O)N(Cc2ccc(C)o2)C2CCS(=O)(=O)C2)cc1 (configuration not stated),.,.,-3,2.2%,-0.1%,.,0.6
Cc1ccc(NC(=S)N2CCC(N(C)CC3CCCO3)CC2)cc1 (configuration not stated),12%,-3.3,-7,.,0.7%,26,0.2
CCOC(=O)c1ccccc1NC(=O)COC(=O)C1CCCC1,.,.,8,0.8%,-0.3%,8,3.0
CC1(NC(=O)CSc2nnc(-c3ccco3)n2Cc2ccccc2)CCS(=O)(=O)C1 (configuration not stated),.,.,-4,-2.6%,0.0%,1,0.0
Cc1cc(CNC(=O)c2cc(-c3ccccc3)nc3ccccc23)nn1C,-12%,-0.9,50,0.1%,-1.2%,?,0.9
S=C(Nc1ccccc1)Nc1nc2ccccc2n1CCOc1ccc(Br)cc1,-28%,6.6,16,-1.4%,-1.1%,4,-0.4
CCN1CCN(CCNC(=O)c2ccc3c(c2)N(Cc2ccc(F)cc2)C(=O)c2ccccc2S3=O)CC1 (configuration not stated),0%,.,19,2.0%,2.9%,4,0.3
O=C(Nc1cccc(C(=O)O)c1)/C(=C\c1ccccc1)NC(=O)c1cccc2ccccc12,-5%,5.0,-11,-4.0%,2.2%,?,0.5
O=C(NC1CCCCC1)c1ccc(CSc2nc3cccnc3n2Cc2ccc(F)cc2)cc1,.,.,6,-7.5%,2.7%,.,-0.8
Cc1ccc(S(=O)(=O)N2CCN(C(=O)[C@H](Cc3ccccc3)NC(=O)c3ccco3)CC2)cc1,.,.,13,0.2%,1.6%,.,0.4
CCc1nnc2n1N=C(c1ccc([N+](=O)[O-])cc1)CS2,-14%,-1.6,-3,-3.1%,1.4%,4,-0.6
COc1ccccc1OCC(=O)OCc1cc(-c2ccco2)on1,.,.,-10,1.4%,0.3%,2,-0.9
Cc1ccc2[nH]c(C(=O)N/N=C/c3ccccc3C(=O)O)c(-c3ccccc3)c2c1,11%,1.5,4,-11%,2.5%,12,0.4
O=C(NCCCCc1ccccc1)C1CC(c2cc(C(F)(F)F)cc(C(F)(F)F)c2)=NO1 (configuration not stated),23%,3.3,-1,3.7%,2.4%,2,-0.4
Cc1cc(C(F)(F)F)n(-c2nc(C(=O)NN)cs2)n1,1%,0.1,12,0.1%,1.8%,10,0.4
O=C(CN(c1ccc(F)cc1)S(=O)(=O)c1ccc2c(c1)OCCO2)NCC1CCCO1 (configuration not stated),14%,1.3,35,-0.6%,5.2%[38.3 µM],-4,0.9
O=C(Nc1nnc(-c2ccncc2)o1)c1cccc(N2C(=O)CCC2=O)c1,56µM*,3.7,-12,.,1.7%,-7,0.2
COC(=O)C1CN(C(=O)c2ccc(OC(F)F)cc2)c2ccccc2O1 (configuration not stated),-2%,-1.6,-6,.,0.4%,16,0.9
CNc1ccc(-c2cc(OC)ccc2OC)cn1,.,.,.,5.1%,-0.4%,.,1.7
CC1CCc2c(sc(NC(=O)c3nc4ncccn4n3)c2C#N)C1 (configuration not stated),22µM*,0.6,-28,0.5%,2.2%,2,0.1
Cc1cc(NC(=O)CSc2nc3ccc(Cl)cc3[nH]2)no1,7%,-0.3,-7,0.0%,-0.6%,0,5.4
CCc1nc(SCC(=O)Nc2ccc3c(c2)OCCO3)c2oc3ccccc3c2n1,3%,-8.2,-6,0.8%,-2.6%,-4,-1.7
CCc1ccc2nc(N=C(N)N)nc(C)c2c1,-4%,2.5,11,-2.1%,-3.2%,14,-0.6
COc1cc(OC)c(NS(=O)(=O)c2cc3c(cc2C)N(C(C)=O)CCO3)cc1Cl,.,.,-11,1.4%,-0.6%,.,1.2
COc1ccc(C2CC(=O)c3cc(-c4nc(-c5ccc(Cl)cc5)cs4)c(=O)[nH]c3C2)cc1 (configuration not stated),.,.,-16,0.6%,0.7%,.,0.0
CCCCCCCCCS(=O)(=O)Nc1cc(C)ccn1,-18%,1.1,15,?,4.5%,-32,-0.6
Cc1cc(C)c(-n2c(O)c(C=NCCN3CCOCC3)c(=O)[nH]c2=O)c(C)c1,18%,4.3,-5,0.2%,2.0%,.,-0.5
CCCCN(CC)CCCNC(=O)c1ccc2c(c1)N(Cc1ccc(C)cc1)C(=O)c1ccccc1S2,.,.,3,0.1%,1.2%,.,2.1
CCCn1c2ccc(F)cc2c2nnc(SCCN3CCOCC3)nc21,-5%,2.4,-5,0.2%,6.0%,8,-0.2
Clc1cncc(Cl)c1NNc1c2ccccc2nc2ccccc12,-7%,4.8,37,28µM*,3.7%,0,0.3
CCOC(=O)c1ccc(NC(=S)N(CCN2CCCCCC2)Cc2cccs2)cc1,8%,-2.3,16,.,-0.4%,5,0.1
CCCNC(=O)c1cc(C2CCCCN2C(=O)c2cc(F)ccc2C)on1 (configuration not stated),.,.,.,-3.3%,1.4%,.,-0.3
Cc1ccccc1NC(=O)c1c(C)nc(SCC(=O)OCc2ccccc2)c(C#N)c1-c1ccc(F)cc1,14%,3.1,2,?,2.7%,11,2.1
C[C@H](CO)N1C[C@H](C)[C@@H](CN(C)S(=O)(=O)c2ccc(C#N)cc2)OCc2cn(nn2)CCCC1=O,.,.,-7,2.0%,0.2%,.,-0.8
COc1ccc(NC(=O)N2CCc3c([nH]c4ccc(OC)cc34)C2c2ccc(OC)cc2)cc1 (configuration not stated),.,.,-16,-5.7%,0.8%,.,0.4
COc1ccccc1CNc1cc(-c2ccccc2CN(C)C)ncn1,11%,1.7,.,.,0.0%,.,.
Cc1noc(C)c1-c1cc(Nc2ccccc2)ncn1,14%,-1.4,.,.,-0.2%,.,.

# Screening results (PubChem BioAssay)
